Menin-MLL FL inh: menin-MLL binding inhibition, fluorescein peptide | AID 1766 | 290,000 tested, under 10 active | Fluorescence polarization, fluorescein-MLL peptide displacement from menin | FP activity change, % at 61.4 µM; inconclusive = falling polarisation curve, or a change in total fluorescence; inactive = total fluorescence flat and polarisation flat or rising; no compound was filed as active; the % refers to the polarisation; negative = inhibition;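 also: % of control where 0% means no effect; inhibitors lower the polarisation; unlabelled MLL peptide was the positive control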
gsp ag: activates gsp, the McCune-Albright syndrome mutation; gsp mutant cells, cAMP HTRF, 30 min; control for the full effect not named in the record; Potency, µM (top dose mostly 76.9 µM), inactives show at the top dose activation (cAMP increase), actives largely listed as activators; hit rate 0.13% among 340,000; AID 624287; active = well fitted activation curve with a large enough effect; inconclusive = small, poorly fitted or top-dose-only effect, or another doubt; inactive = no such curve, though single readings can be large or run the other way; cell line not stated here;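 also: phosphodiesterase inhibitor Ro 20-1724 added with compounds to block cAMP breakdown; potency is read from the fitted curve at half-maximal effect; nearly all actives have a fitted effect of over 60% in size; about a fifth of the inactives were tested at one dose only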
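Cells stably selected in G418 were plated at 2000/well, grown 16-24 hr, then given compounds in DMSO with the PDE inhibitor […] (300 uM solution added) for 30 min at 37C; cAMP was read by HTRF.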
gsp antagonist: antagonizes gsp, the McCune-Albright syndrome mutation. gsp-mutant cells, cAMP HTRF, 30 min; control for the full effect not named in the record. Potency, µM (titrated, usually from 76.9 µM), inactives show at the highest dose activity change, negative = inhibition, usual class: inhibitors. hit rate 0.4% among 340,000; active = falling curve of any shape with a large fitted effect; inconclusive = falling curve, mostly with a smaller effect; inactive = flat or rising curve; cell line not stated here;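 also: intracellular cAMP measured with PDE inhibitor Ro 20-1724 present during compound exposure; potency is read from the fitted curve at half-maximal effect; % is scaled to controls: 0 for no effect and ±100 for the full control effect; nearly all actives have a fitted effect of over 65% in size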
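Measurement of cellular cAMP by homogeneous time-resolved fluorescence following a 30 min compound exposure at 37C. The PDE inhibitor […] was present throughout; the assay buffer was DPBS with 0.05% BSA and 0.005% Tween 20.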
Sfp PPTase inh: blocks B. subtilis Sfp PPTase activity; Biochemical Sfp PPTase activity, qHTS; Potency, µM, without a hit: max response, negative = inhibition, actives largely listed as inhibitors; hit rate 3.5% among 310,000; AID 1490; active = well fitted inhibition curve with a large enough effect; inconclusive = small, poorly fitted or top-dose-only effect, or another doubt; inactive = no such curve, though single readings can be large or run the other way;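 also: the enzyme is Sfp with the accession as filed and its product quenches rhodamine fluorescence; potency is read from the fitted curve at half-maximal effect; 0% = enzyme reaction without inhibitor and -100% = no enzyme wells; top concentration of the series not given in the record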
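Reaction rates are the 30-min fluorescence difference (ex 525, em 598 nm) in wells containing 15 nM Sfp, 5 uM rhodamine-CoA and 12.5 uM BHQ-2-YbbR at pH 7.6 with 10 mM MgCl2.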
TRPV1 PAM: potentiators of human vanilloid receptor 1 (TRPV1); Q8NER1; TRPV1-expressing cells, Fluo-8 calcium influx, capsaicin EC20 potentiation; host cell line not named in the record; control for the full effect not named in the record; potentiation, % at 8.33 µM; hit rate 0.02% among 320,000; AID 540277; active means potentiation above 80%; inconclusive means 30% to 80%; inactive means below 30%; also: 0% is about no effect
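Cells expressing TRPV1 were dye-loaded with Fluo-8 and read kinetically: 10 s baseline, 3 min after compound (agonist portion), then 2 min after EC20 capsaicin (allosteric enhancer portion). Calcium-bound dye fluorescence at 480/520 nm.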
ClpP mod: qHTS Assay for Activators of ClpP | Potency, µM (doses to about 57.5 µM), for the others: at the highest dose activity change, negative = active | AID 651965, 2013 | ATP-dependent Clp protease proteolytic subunit (Bacillus subtilis (strain 168)), P80244 | purified B. subtilis ClpP, FRET peptide cleavage, 20 min | hit rate 1.9% among 340,000; active = well fitted falling curve with a large enough effect; inconclusive = small, poorly fitted or top-dose-only effect; inactive = no such curve, though single readings can be large or run the other way; also: potency is read from the fitted curve at half-maximal effect; the source files actives as falling curves though it sought activators and does not explain the sign; nearly all actives have a fitted effect of over 65% in size; many hits overshoot -100%
Target sequence (P80244 whole entry, looked up): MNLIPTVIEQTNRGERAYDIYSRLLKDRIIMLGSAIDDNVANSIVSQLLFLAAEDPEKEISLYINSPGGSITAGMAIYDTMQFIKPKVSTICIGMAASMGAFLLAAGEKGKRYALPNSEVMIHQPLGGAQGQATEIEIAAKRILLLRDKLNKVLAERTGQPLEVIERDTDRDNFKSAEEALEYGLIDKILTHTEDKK
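FRET quenching reversal measured ClpP activation: 10 microg/mL B. subtilis ClpP at pH 8 with the FRET-FV decapeptide, read at 430 nm after 320 nm excitation. The 20-min minus 0-min signal was scaled between DMSO/no-enzyme wells and ADEP (5.8 microM final).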
TRPML1 inh: inhibitors of human TRPML1 channel; Q9GZU1; hit rate 0.02% among 390,000; TRPML1-inducible cells, Ca2+ dye fluorescence, FDSS; active compounds read low; inhibition of EC80 agonist-evoked calcium signal; AID 624415; activity change, negative = inhibition, % (test concentration not listed); in the data active means activity change below about -50%; inconclusive means about -30% to -50%; inactive means above about -30%;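 also: stimulus is agonist 54-4 at its EC80 concentration; % is scaled to controls: 0 for no effect and ±100 for the full control effect; compound concentration not given in the record; the text of the record puts the active cut at -80%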
Target sequence (Q9GZU1 whole entry, looked up): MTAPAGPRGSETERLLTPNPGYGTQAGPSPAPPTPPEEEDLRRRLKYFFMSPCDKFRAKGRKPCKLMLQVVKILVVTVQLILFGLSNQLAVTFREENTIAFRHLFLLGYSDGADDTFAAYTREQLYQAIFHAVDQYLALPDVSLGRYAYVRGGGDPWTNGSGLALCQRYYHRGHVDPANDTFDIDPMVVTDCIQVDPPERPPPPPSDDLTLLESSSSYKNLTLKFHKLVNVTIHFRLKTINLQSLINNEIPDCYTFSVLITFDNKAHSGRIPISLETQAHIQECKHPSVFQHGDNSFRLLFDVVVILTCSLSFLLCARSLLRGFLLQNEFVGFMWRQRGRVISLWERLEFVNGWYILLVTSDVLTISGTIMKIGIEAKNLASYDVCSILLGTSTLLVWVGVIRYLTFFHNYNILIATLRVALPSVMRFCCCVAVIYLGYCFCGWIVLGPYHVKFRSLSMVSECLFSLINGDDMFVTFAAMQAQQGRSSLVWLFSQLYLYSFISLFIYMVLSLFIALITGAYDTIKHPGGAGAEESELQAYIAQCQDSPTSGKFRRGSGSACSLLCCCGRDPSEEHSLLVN
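TRPML1-DL cells, Tet-induced overnight (~16 h, 37 °C) at 1,500 cells/well, were loaded with Ca8 no-wash dye plus quencher for 45-90 min at room temperature. Compounds were pinned during FDSS kinetic reading; agonist 54-4 at EC80 (4 uM final) then added.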
* = called active by the depositor; ? = inconclusive; nt = not tested or not shown; & = joins results of further samples; [ ] = remark or other dose. Compounds were not picked by outcome. About 4.9% of those tested had a hit in this group.

The line under a structure holds: Menin-MLL FL inh | gsp ag | gsp antagonist | Sfp PPTase inh | TRPV1 PAM | ClpP mod | TRPML1 inh
Nc1c2c(nn1-c1ccc(C(=O)O)cc1)CNC2
    -4.2 | 11.3% | 8.2% | 12.0% | 7.9 | nt | 26.7
COc1ccc(CNC(=O)COC(=O)c2ccc(F)c(S(=O)(=O)N3CCCCC3)c2)cc1OC
    2.5 | -3.1% | -26.4% | 8.9% | 0.8 | -1.2% | -2.1
CC1=C(C)CC(C(=O)Nc2nccs2)C(C(=O)O)C1 (configuration not stated)
    2.4 | -67.7%[inhibitor] | 6.9% | 12.7% | 20.0 | nt | -2.3
Cc1cc(C)nc(SCC(=O)NCC2COc3ccccc3O2)n1 (configuration not stated)
    nt | -35.9% | 5.7% | nt | -4.6 | -0.7% | -5.3
CN(C(=O)c1ccc(NC(=O)Cc2cccc(NC(=O)C3CCCN(C(=O)C4CCCCC4)C3)c2)cc1)C1CCCC1 (configuration not stated)
    nt | -19.7% | -23.1% | nt | -0.1 | -1.2% | -5.3
Cc1ccc(CN2CC(C(=O)N3CCN(S(=O)(=O)c4cccc(F)c4)CC3)CC2=O)cc1 (configuration not stated)
    nt | -7.1%[15.4 µM] | 0.8% | nt | -4.3 | ? | -7.8
CN(CC(=O)NCc1ccco1)S(=O)(=O)c1cccc2cccnc12
    3.4 | -42.0%[inhibitor] | 3.9% | -10.6% | -3.1 | -0.7% | -14.9
O=C(NCc1ccc(F)cc1)c1ccc(Br)o1
    -4.5 | -2.9%[15.4 µM] | nt | 9.7% | -11.3 | nt | 24.2
CCN(CC)C(=O)Cn1cc(C(=O)C2CC2)c2ccccc21
    -0.7 | 8.4%[15.4 µM] | 6.0% | 18.7% | -6.6 | nt | 24.1
O=C(Nc1cccc(Cl)c1)N(CCCN1CCOCC1)Cc1ccccc1F
    -0.7 | -23.0% | 0.0% | -6.5% | -6.0 | -0.7% | 7.1
Cc1ccc(S(=O)(=O)/N=C(/c2ccc(F)cc2)N2CCOCC2)cc1
    0.5 | -6.8% | 12.1% | 9.1% | 5.3 | -2.4% | -0.9
CCOc1ccc(S(=O)(=O)N2Cc3ccccc3CC2C(=O)O)cc1 (configuration not stated)
    4.1 | -19.0% | -2.5% | 23.8% | 12.7 | 1.0% | nt
Cc1ccc(C)c(N(C)S(=O)(=O)c2cccc3nsnc23)c1
    2.3 | -1.6% | ? | 15.2% | 0.5 | -2.2% | -8.1
O=C(CSc1nnnn1-c1ccc(C(=O)O)cc1)NC1CC1
    nt | 7.7% | -10.9% | 18.9% | 6.9 | -1.5% | -1.0
CC1(C)Cc2nc(Cl)c(C(N)=O)cc2CO1
    -0.7 | -3.9% | -5.0% | 12.6% | -4.9 | 0.4% | -4.0
CC1CCN(C(=O)Cn2c(=O)n(Cc3ccco3)c(=O)c3sccc32)CC1
    8.7 | 3.7%[15.4 µM] | 13.6% | 7.0% | 4.5 | nt | -2.1
C=CCOc1ccccc1CN1CCC(Cc2ccccc2)CC1
    -2.1 | -0.1%[15.4 µM] | 4.9% | -15.9% | 12.5 | -4.2% | -19.0
CCOP(=O)(c1ccccc1)c1nc(-c2ccccc2C)oc1N1CCCCC1 (configuration not stated)
    1.1 | -25.8% | -16.0% | -22.3% | 15.1 | ? | 11.6
O=C(C[C@@H]1C/C=C\C[C@H](Cc2ccc(F)cc2)C(=O)OCCNC1=O)N[C@H](CO)Cc1ccccc1
    nt | -1.9% | 5.2% | nt | nt | -3.9% | -0.1
CC1CCC(NC(=O)CSc2nncn2C)CC1 (configuration not stated)
    nt | 12.0%[15.4 µM] | 1.2% | nt | nt | -4.7% | -20.3
CCOC(=O)/C=C1\Nc2ccccc2OC1=O
    2.5 | -47.0%[inhibitor] | 1.8% | 50.1µM* | 1.4 | 9.2% | -4.2
Cn1c(=O)c2c(SCC(=O)N3CCOCC3)nc(-c3ccccc3F)nc2n(C)c1=O
    -8.3 | -9.0% | -17.0% | 12.3% | 0.4 | -2.5% | -4.1
CC(C)CN(C(=O)Cn1c(=O)cnc2ccccc21)C1CCS(=O)(=O)C1 (configuration not stated)
    nt | -0.9% | -1.4% | nt | 1.8 | -12.8% | 2.8
CCN(CC)c1ccc(C2C(C(=O)OC)=C(C)NC(C)=C2C(=O)OC)cc1
    2.6 | 18.1% | 13.2% | -4.1% | -1.7 | ? | 6.3
CC(=O)c1ccc(OCC(O)CN2CCN(S(=O)(=O)c3c(C)c(C)cc(C)c3C)CC2)cc1 (configuration not stated)
    5.6 | ? | -3.1% | -6.4% | 0.0 | -0.4% | 21.8
CN(CC(=O)NCCc1ccc(F)cc1)Cc1cccs1
    1.0 | -2.0%[15.4 µM] | -5.0% | 10.0% | -18.6 | nt | -19.6
O=C1CC(NCC2CCCO2)C(=O)N1c1ccc(F)cc1 (configuration not stated)
    0.8 | -19.2% | 7.7% | -16.0% | 28.6 | 0.8% | 13.1
CC(CCCCC(=O)Nc1ccc(C(F)(F)F)cc1)NCCc1cnc[nH]1 (configuration not stated)
    -1.8 | nt | nt | -7.2%&17.0% | 6.9 | nt | nt
O=S(=O)(c1ccccc1)c1nc(NC2CC2)sc1Cl
    2.7 | -4.4%[15.4 µM] | 18.1% | -15.6% | -10.7 | nt | -15.1
FC(F)(F)c1ccc(/C=N/N2CCN(Cc3ccccc3)CC2)cc1
    nt | 7.8%[15.4 µM] | 1.6% | 13.8% | -22.8 | -0.7% | 14.0

Continuation:
The line under a structure holds: Menin-MLL FL inh | gsp ag | gsp antagonist | Sfp PPTase inh | TRPV1 PAM | ClpP mod | TRPML1 inh
CC1(C)C(=O)Nc2ccccc2N1C(=O)CN1C(=O)NC(CCc2ccccc2)C1=O (configuration not stated)
    5.8 | -37.6%[inhibitor] | 7.5% | -3.0% | 5.0 | -2.8% | -3.5
CC1CCCN(CCC(=O)Nc2ccc(Br)cc2)C1 (configuration not stated)
    0.3 | 1.2% | 2.1% | 9.8% | -9.0 | -1.3% | 0.7
CCOC(=O)c1cccc(NC(=O)CNS(=O)(=O)c2cccs2)c1
    0.4 | -10.0% | -14.2% | 7.3% | 8.9 | -0.6% | -1.3
Cc1ccc2c(c1)N(CC(=O)NC1CCCC1)C(=O)C(C)O2 (configuration not stated)
    nt | -7.3%[15.4 µM] | 4.3% | 13.2% | 0.7 | nt | 10.4
COc1cc(OC)c(CNC2CCCCCC2)cc1Br
    -0.2 | 14.1%[15.4 µM] | 11.7% | 13.9% | -8.8 | 2.82µM* | -12.7
CN(C(=O)CSc1nnc(-c2ccc(Cl)cc2)n1CC1CCCO1)C1CCS(=O)(=O)C1 (configuration not stated)
    5.2 | -4.8%[15.4 µM] | -2.5% | 8.5% | 7.3 | -3.1% | -10.4
CC(OC(=O)c1snc(C(=O)NC2CCCCC2)c1N)C(=O)NC(C)(C)C (configuration not stated)
    2.2 | 0.6% | -7.5% | 12.9% | -0.5 | 28.2µM* | 4.9
CNC[C@H]1Oc2c(NC(=O)C3CCCCC3)cccc2C(=O)N([C@H](C)CO)C[C@@H]1C
    nt | nt | 2.7% | nt | nt | -1.2% | -3.2
COc1ccc(C(=O)NCCCC2CCCC2)cc1OC1CCN(C(C)C)CC1
    nt | -2.9% | nt | nt | nt | 1.8% | 12.3
CSc1ccc(Cl)c(C(=O)Nc2nccs2)c1
    2.6 | 2.6% | -3.4% | 15.3% | -13.8 | -0.4% | -2.9
O=C(NC1CCCC1)C1CCCN(S(=O)(=O)c2ccc(F)cc2)C1 (configuration not stated)
    1.3 | 7.0%[15.4 µM] | 4.2% | 16.1% | -5.9 | nt | -9.4
COc1ccc(/C=N/n2c(=O)[nH]c3c([nH]c4ccc(Cl)cc43)c2=O)cc1CN1CCCCC1
    4.0 | 18.0%[15.4 µM] | -8.3% | 7.3% | nt | -0.4% | -2.6
CCOC(=O)c1cc2c(=O)n3ccccc3nc2n(Cc2ccco2)c1=NC(=O)c1ccc(OC)cc1OC
    3.9 | 3.3%[15.4 µM] | -27.2% | 44.7µM* | 4.2 | 0.4% | -1.2
CC(=O)Nc1ccc(NC(=O)COc2ccc(-c3ccccc3)cc2)cc1
    nt | -0.8% | 12.3% | 13.3% | 25.5 | 0.9% | 1.3
Cc1ccc(C(=O)OCC(=O)Nc2cccc(Br)c2)s1
    nt | -45.4%[inhibitor] | nt | nt | nt | -3.2% | 22.9
CC1C2NC(=O)N(Cc3ccccc3)C1(C)Oc1ccccc12 (configuration not stated)
    -5.0 | 18.2% | 9.0% | 5.3% | -3.0 | -0.6% | -9.2
CCn1c(SCC(=O)c2ccc(C)cc2)nnc1-c1ccoc1C
    3.9 | 4.3% | -12.0% | 79.4µM* | -9.0 | 0.4% | 0.5
Cc1ccc(C(=O)OCC(=O)c2ccccc2)cc1
    -5.1 | 9.3%[15.4 µM] | -2.9% | 8.0% | -1.5 | 14.1µM* | 10.8
O=C1CC(c2ccccc2)CC(O)=C1C=Nc1ccccc1O (configuration not stated)
    16.6 | -48.2%[inhibitor] | -1.4% | 17.3% | -13.0 | -1.8% | -5.9
N#Cc1cccc(N=Cc2c(O)ccc3ccccc23)c1
    4.0 | ? | 10.2% | -3.3% | 2.7 | -11.9% | 1.0
CC1CCCCN1Cc1c(O)ccc2c(=O)c(-c3ccc(Cl)cc3)coc12 (configuration not stated)
    -0.1 | 5.8%[15.4 µM] | -13.9% | 11.7% | 12.1 | 12.6µM* | -4.6&-24.8
O=C(CSc1nc2[nH]ncc2c(=O)[nH]1)NCCc1ccccc1
    -3.3 | -39.3% | 3.2% | 16.6% | -3.8 | -1.4% | -4.2
O=C(Oc1c(CN2CCOCC2)cc(Cl)c2cccnc12)c1ccccc1Br
    0.0 | -7.9% | 8.1% | -4.6% | nt | -0.9% | 22.4
O=C(NCc1ccco1)/C(=C/c1cccc(C(F)(F)F)c1)c1nc2ccccc2[nH]1
    14.8 | 7.7% | -3.6% | 18.5% | -16.4 | 15.7% | -15.8
NC(=O)CN1C(=O)C2C3c4ccccc4C(c4ccccc43)C2C1=O (configuration not stated)
    3.2 | 28.5% | 3.5% | -2.7% | -1.0 | 0.3% | -19.8
